# Compound activity (PubChem BioAssay)
# KSHV LANA nucl – inhibitors of KSHV LANA binding to nucleosomes | FITC-LANA1-23 / chicken nucleosome fluorescence polarization; hits give low values | 0.3% of 51,000 active | z-score (concentration not given with the values);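 active = both repeat wells score below -2 in polarization z-score versus plate sample wells, excluding overly bright wells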;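 note: 100 nL library stock added to about 30 µL; numbers are from one replicate; some results filed as inactive read as strong as hits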
#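 Test system: purified chicken nucleosomes with FITC-labelled LANA N-terminal peptide (1-23); Input: 240 nM purified chicken nucleosomes (480 nM peptide binding sites), final; Medium: TEN-BT buffer, pH 7.5; Timing: 10–45 min, room temperature; Technique: fluorescence polarization, 480 nm excitation, 535 nm parallel and perpendicular emission; Replication: duplicates.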
# BasE inh – blocks the Acinetobacter baumannii siderophore enzyme BasE | purified BasE, fluorescence polarization binding displacement | inhibition, % (no concentration beside the values) | 0.1% of 84,000 active;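 active = both replicates above 25% with normal brightness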;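 note: 0% = negative plate control signal and 100% = positive plate control signal; stock transfer was 100 nL into about 30 µL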
# Starred values were filed as active, the others as inactive; . = no result given; & = joins results of further samples. A portion of the library; the hit share may differ from the screen's.
SMILES,KSHV LANA nucl,BasE inh
Cc1cc(-c2ccc(Cl)cc2)c2c(=O)[nH][nH]c2n1,.,-0.7
O=c1ccc(-c2ccc(S(=O)(=O)NCCSCc3ccco3)s2)n[nH]1,0.565,-0.6
CC1CC(=O)c2cnc(N3CCOCC3)nc2C1 (stereo not given),0.766,0.8
O=C(CNC(=O)Nc1ccc(Cl)c(Cl)c1)NC1CC1,.,-2.4
O=C(CN1C(=O)S/C(=C\c2ccc(Cl)cc2)C1=O)Nc1cccnc1,.,2.1
O=C(COc1ccc(Cl)cc1)Nc1c(-c2ccccc2)nc2sccn12,.,-2.4
Cc1oc2nc[nH]c(=O)c2c1C(=O)OC(C)C(=O)N1CCOCC1 (stereo not given),.,1.9
O=c1[nH][nH]c(=O)n1/N=C/C=C\c1ccccc1,-0.147,2.9
CCCn1c(SCC(=O)c2ccccc2)nnc1C(C)C,-0.573,-1.3
Cc1nc2ccccn2c1-c1ccnc(SCC(=O)Nc2ccc(C(C)C)cc2)n1,.,1.7
CC(CCC(=O)O)[C@H]1CCC2C3CC[C@@H]4C[C@H](O)CC[C@]4(C)C3CC[C@@]21C (stereo not given in full),0.271,-3.7
COc1ccc(/C=N/n2cnc3c([nH]c4ccc(F)cc43)c2=O)cc1,.,1.9
Cn1ccsc1=NC(=O)c1cccc(S(=O)(=O)N2CCCCC2)c1,.,-1.6
Cc1ccccc1Nc1nnc(SCC(=O)NC2CCC(C)CC2)s1 (stereo not given),.,0.9
Cn1cc(S(=O)(=O)NCCc2ccccc2)c(=O)n(C)c1=O,0.744,-2.9
O=C(Nc1ccc(N2CCCCCC2)cc1)c1ccncc1,.,0.7
Nc1ncc(-c2nnnn2-c2ccccc2)c(-c2ccccc2)n1,0.0445,1.4
Cc1cc(=S)n(-c2ccccc2)n1C,-0.009,-2.3
S=C(NCc1ccccc1)N/N=C/c1ccco1,1.49,-5.5
CCCCSc1nnc(CNC(=O)c2ccc(OC)cc2)n1CCCC,-0.738,0.6
Cc1ccc2c(c1)c1c3n2CCN(C(=O)c2c(-c4ccccc4Cl)noc2C)C3CCC1 (stereo not given),0.121,1.1
Cc1cc(C(=O)NN)n(C(C)(C)C)n1,.,2.0
Cc1ccc(S(=O)(=O)N2CCN(C(=O)CCC(=O)NC3CCCc4ccccc43)CC2)cc1 (stereo not given),.,1.1
CC(NC(=O)Nc1ccc2c(c1)OCO2)c1ccncc1 (stereo not given),0.697,1.6
O=C(c1ccccc1)N(C(=O)c1ccccc1)C(=O)c1ccccc1,.,3.4

# New compounds follow:
SMILES,KSHV LANA nucl,BasE inh
Cc1cccc(-c2nnc(C(C)Oc3cc(Cl)ccc3Cl)o2)c1 (stereo not given),.,-0.6
Cc1ccc(S(=O)(=O)/N=C2\C=C(Sc3ncn[nH]3)C(=O)c3ccccc32)cc1,-0.675,6.5
COc1ccc(C(C)(C)C)cc1NC(=O)COC(=O)C1CC(=O)N(Cc2ccco2)C1 (stereo not given),.,1.3
O=C(NN1C(=O)CCC1=O)c1cccc(Br)c1,0.131,2.8
FC(F)(F)c1ccnc(NCCNC(=S)Nc2ccc3c(c2)OCCO3)n1,0.197,-1.0
O=c1oc2ccccc2c2c1nc(C(F)(F)F)n2-c1ccccc1,.,2.0
CCCc1cc(=O)n2nc(N3CCC(C(=O)Nc4ccc(CC)cc4)CC3)sc2n1,-1.72,-0.7
CN(Cc1ccco1)C(=O)CCS(=O)(=O)c1ccc2c(c1)n(C)c(=O)c(=O)n2C,-0.23,-0.3
O=C1CCCCC1Sc1nnc(-c2ccco2)n1-c1ccccc1 (stereo not given),.,-0.8
O=C1C(O)=C(O)C(=O)C(O)=C1O,0.0755&-0.484&0.512,-0.9&-4.4
CCOc1ccc(-n2cc(C(=O)Nc3ccc(N4CCOCC4)cc3)nn2)cc1,0.37,2.6
Cn1ncc2c(O/N=C/c3ccc(Cl)cc3Cl)ncnc21,-0.535,2.5
CCSc1nnc(-c2ccc(Cl)cc2)o1,-2.15,0.5
O=C(Nc1ccc(Cl)cc1)N1CCC(O)CC1,.,2.5
COC(=O)c1cccc(Nc2cc(C)nc3ccccc23)c1,-0.438,-2.9
COC(=O)C1=C(Nc2ccc(F)cc2F)CSC1,.,-1.2
CN(C)Cc1nc2ccccc2c(=O)[nH]1,.,1.8
Cc1c(Cl)cccc1NC(=S)N(CCCN1CCCC(C)C1)Cc1ccco1 (stereo not given),1,-2.3
COC(=O)c1c(C)c[nH]c1C,.,0.6
CCc1oc(C(=O)O)cc1COC,-0.664,0.2
Cc1cc(=O)[nH]c(SCC(=O)OCc2ccccc2)c1C#N,0.978,-0.8
CC1=C(C(=O)OC2CCCC2)C(c2ccccc2)NC(=O)N1 (stereo not given),1.28,-5.0
C=CCNC(=O)c1cc2n(n1)C(C(F)(F)F)CC(c1ccco1)N2 (stereo not given),-0.074,-1.9
NC(=O)C1CCN(C(=O)COC(=O)C23CC4CC(CC(C4)C2)C3)CC1,.,-0.3
CCCn1cnc2c(cnn2-c2ccc(Cl)cc2)c1=O,1.77,0.2

# (more compounds)
SMILES,KSHV LANA nucl,BasE inh
Cn1c(SCc2cccnc2)ncc(C(=O)Nc2ccc(F)cc2)c1=O,0.495,0.0
c1ccc(N=C(c2cccs2)N2CCOCC2)cc1,0.136,1.2
CC(C)C1C(C#N)=C(N)OC2=C1C(=O)CCC2 (stereo not given),-1.31,-0.8
NS(=O)(=O)c1ccc(N2CCOCC2)c(C(=O)O)c1,.,1.1
CSc1ccc(OCOc2ccc(SC)cc2)cc1,.,1.3
CCN(CC)Cn1c(=S)oc2ccccc21,.,11.3
Cn1cccc1C(=O)NC(=O)CSc1nc2ncc(Cl)cc2[nH]1,.,-4.5
CC(C)=C(NC(=O)c1ccccc1)C(=O)NN=C1CCN(Cc2ccccc2)CC1,0.53,-2.9
C=CCn1cc(/C=C2/SC(=O)N(CC(=O)OC)C2=O)c2ccccc21,.,0.7
CC(C)/C=C1\CC/C(=C\c2ccncc2)C1=O,-0.13,0.0
Cc1nn(C)c(C)c1NC(=O)COC(=O)c1n[nH]c(=O)c2ccccc12,.,1.7
Cc1ccccc1CN(C)C(C)C(=O)NCc1ccccc1 (stereo not given),.,1.5
Cc1c(C(C)C)c(=O)n(-c2ccc(S(=O)(=O)NC(C)C)cc2)n1C,-0.859,-0.1
CCN(C(=O)CSc1nnc(C)c(=O)[nH]1)C1CCCCC1,.,0.4
CCCCNc1ncc2c(n1)CC(c1ccccc1)CC2=O (stereo not given),-0.146,1.3
O=C(COC(=O)C1CCN(S(=O)(=O)c2ccccc2)CC1)Nc1ccccc1C(=O)NC1CC1,.,-0.2
Cc1ccc(NC(=O)CC2SC(=NC(c3ccc(O)cc3)c3c(O)[nH]c(=O)[nH]c3=O)NC2=O)cc1 (stereo not given),0.754,1.1
Nc1nc2ccccc2cc1-c1cccs1,-1.06,.
Cc1ccc(C)n1Cc1ccc(C(=O)O)cc1,-0.0955,7.0
CN(Cc1ccccc1)C(=S)NC(=O)c1ccccc1,.,3.4
Cc1ccc(-c2nc(SCC(=O)NCc3ccco3)c(-c3ccc(F)cc3)[nH]2)cc1,-0.102,0.9
Cc1ccc(/C=C/c2onc3c(=O)[nH]nc(C)c23)cc1,.,-1.0
Cc1ccc(S(=O)(=O)Nc2nc3ccccc3nc2N2CC(C)OC(C)C2)cc1 (stereo not given),.,1.4
Cc1ccc(-n2c(SC3CCCC3=O)nnc2-c2ccncc2)cc1C (stereo not given),.,2.6
Cc1oc2ncn3nc(-c4ccncc4)nc3c2c1C,.,-1.5

# Reprinted from the part before: six compounds, followed by the next part.
SMILES,KSHV LANA nucl,BasE inh
CN(Cc1ccccc1)C(=S)NC(=O)c1ccccc1,.,3.4
Cc1ccc(-c2nc(SCC(=O)NCc3ccco3)c(-c3ccc(F)cc3)[nH]2)cc1,-0.102,0.9
Cc1ccc(/C=C/c2onc3c(=O)[nH]nc(C)c23)cc1,.,-1.0
Cc1ccc(S(=O)(=O)Nc2nc3ccccc3nc2N2CC(C)OC(C)C2)cc1 (stereo not given),.,1.4
Cc1ccc(-n2c(SC3CCCC3=O)nnc2-c2ccncc2)cc1C (stereo not given),.,2.6
Cc1oc2ncn3nc(-c4ccncc4)nc3c2c1C,.,-1.5
CCOC(=O)C1CCN(/C(C)=C\C(=O)C(F)(F)F)CC1,.,0.4
CC1CCCCN1S(=O)(=O)c1ccc(C(=O)Nc2cccc(-c3nc4ccccc4[nH]3)c2)cc1 (stereo not given),.,-0.1
CCc1ccc(NC(=O)NCC2CCN(c3ccc(OC)cc3)C2)cc1 (stereo not given),-0.045,-2.3
N#Cc1ccc(COC(=O)CC2Oc3ccccc3NC2=O)cc1 (stereo not given),.,2.0
CC1(C)CC2=NN(c3ccccc3)P(=O)(N3CCCCC3)C2=C(N2CCOCC2)C1 (stereo not given),.,1.8
COc1cccc(C2N(c3ccccc3)C(=O)N3CCCN23)c1 (stereo not given),-0.348,3.2
COc1ccc(Nc2[nH]nc(NC(=O)COc3ccc(Cl)cc3)c2C#N)cc1,.,-0.8
Cn1ccc2c(OCC(N)=O)cccc2c1=O,0.869,0.1
C=CCNc1ncnc2c1cnn2-c1cccc(Cl)c1,-0.274,0.5
O=C1CSCN1c1ccc(Oc2ccccc2)cc1,2.56,.
Cc1cccc(-n2c(C)c(C)c3c(N)ncnc32)c1,.,3.0
CN1CCCN(C(=O)C2CCCO2)CC1 (stereo not given),-1.34,2.3
CCCCN(C)C(=O)c1noc2c1CCCCC2,.,2.2
Cc1ccc(Cn2c(=O)n(C3CCCC3)c(=O)c3ccccc32)c(C)c1,0.485,1.4
CCn1c(C)nc2cc(C(=O)n3cc(C(=O)c4ccccc4O)cn3)ccc21,.,0.7
CCOC(Cn1c2ccccc2c2ccccc21)OCC,.,1.1
Cc1ccc(Oc2ncccc2NC(=O)CC(CC(=O)O)c2ccccc2)c2c1CCC2 (stereo not given),.,2.3
CCOC(=O)N1CCN(CC(=O)Nc2cc(C)nn2-c2nc3ccccc3s2)CC1,.,1.5
O=C(NCc1ccco1)NC(=O)c1ccc(-c2csnn2)cc1,.,6.0
CC(C)(CSc1nncn1/N=C/c1ccco1)NS(=O)(=O)c1ccc(Cl)cc1,.,1.0
O=C(/C=C/c1ccccc1)C1=C(O)C(=O)N(CCO)C1c1ccc(F)cc1 (stereo not given),-0.405,0.5
CC(CCc1ccc(O)cc1)NCC(O)c1ccc(O)cc1 (stereo not given),0.325,.
CCN(CC)c1ccc(NC(=O)CSc2nc(C)cc(=O)[nH]2)cc1,-0.318,0.0
Cc1ccc(-c2csc(=NC(C)(C)C)n2-c2c(C)n(C)n(-c3ccccc3)c2=O)cc1,0.857,0.1
Cc1sc2nc(C3(C#N)Cc4ccccc4N4CCCC43)[nH]c(=O)c2c1C (stereo not given),.,-2.9

# Sorted by heavy-atom count (high to low): some entries from above.
SMILES,KSHV LANA nucl,BasE inh
CC(C)(CSc1nncn1/N=C/c1ccco1)NS(=O)(=O)c1ccc(Cl)cc1,.,1.0
O=C(c1ccccc1)N(C(=O)c1ccccc1)C(=O)c1ccccc1,.,3.4
O=C1CCCCC1Sc1nnc(-c2ccco2)n1-c1ccccc1 (stereo not given),.,-0.8
Cn1cc(S(=O)(=O)NCCc2ccccc2)c(=O)n(C)c1=O,0.744,-2.9
Cc1ccc(/C=C/c2onc3c(=O)[nH]nc(C)c23)cc1,.,-1.0
CCN(CC)Cn1c(=S)oc2ccccc21,.,11.3

# More structures follow.
SMILES,KSHV LANA nucl,BasE inh
CCOC(=O)c1c(NC(C)=O)[nH]c2ccc(OC)cc12,0.249,-0.9
CN1/C(=C\P(=O)(c2ccccc2)N2CCOCC2)C(C)(C)c2ccccc21 (stereo not given),.,-0.2
CC(=O)N1CC(C(=O)O)Oc2ccc(Cl)cc21 (stereo not given),0.268,1.5
CS(=O)(=O)c1sc(C#N)c2c1C(=O)CCC2,0.677,0.1
COc1ccc(C(=O)CN2CCC(N3CCCCC3)CC2)cc1,-0.994,3.1
CNC(=O)COc1ccccc1Br,.,0.8
CCOC(=O)Nc1ccc2c(CN3CCc4ccccc4C3)cc(=O)oc2c1,.,0.6
O=C1C2Sc3[nH]c(=O)sc3C(/C=C/c3ccccc3)C2C(=O)N1c1ccc(Br)cc1 (stereo not given),.,-6.1
CN(Cc1ccccc1)S(=O)(=O)c1ccc2c(c1)CCCC(=O)N2,.,0.8
O=C(NC(c1ccccc1)c1ccccc1)C1CCN(c2ncccn2)CC1,-0.898,3.6
CCN(CC(=O)O)S(=O)(=O)c1ccccc1,-0.538,1.3
CCCC(=O)NC(=S)Nc1ccccc1N1CCOCC1,.,-0.8
COC(=O)c1cn(NC(=O)c2ccncc2)c(=O)c2ccccc12,0.528,-2.1
CC1(C)C(C#N)=C(S)NC(=O)C1C#N (stereo not given),.,1.1
CCOc1ccc2cc(C3CC(c4ccco4)=NN3S(C)(=O)=O)c(=O)[nH]c2c1 (stereo not given),-1.83,1.3
O=c1[nH]c(CN2CCc3ccccc32)nc2ccccc12,.,1.6
O=C(CCCn1c2ccccc2c2cn[nH]c(=O)c21)NC1CCCCCC1,-1.74,-2.0
CCCn1c(C)cc(C(=O)Cn2ncc(Cl)c(Cl)c2=O)c1C,.,-1.8
CC(=O)N1CCN(Cc2csc(Nc3ccccc3)n2)CC1,.,-0.1
C=CCNC(=O)Nc1ccc(OCC)cc1,-1.23,0.0
COC(=O)c1cc(Cn2nc(C(=O)O)c3ccccc3c2=O)oc1C,.,1.7
Cc1cc2nc3s/c(=C\c4ccc(C(C)C)cc4)c(=O)n3c2cc1C,.,1.3
